Rango-impB inh: prevents formation of the Rango-importin beta complex | Q14974 | Rango CFP/YFP FRET sensor + importin beta, 45 min | Potency, µM (doses to about 92.2 µM), without a hit: top-dose inhibition of complex formation | hit rate 0.031% among 340,000 | AID 540263; active = rising FRET ratio curve, often small or poorly fitted; inconclusive = mostly compound fluorescence or quenching in the first reads; inactive = flat curves in all reads;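 further: potency means the concentration at half of the fitted maximal effect; 0% = DMSO wells and 100% = buffer wells lacking importin beta; nearly all actives have a fitted effect of over 15% in size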
Target sequence (Q14974 whole entry, looked up): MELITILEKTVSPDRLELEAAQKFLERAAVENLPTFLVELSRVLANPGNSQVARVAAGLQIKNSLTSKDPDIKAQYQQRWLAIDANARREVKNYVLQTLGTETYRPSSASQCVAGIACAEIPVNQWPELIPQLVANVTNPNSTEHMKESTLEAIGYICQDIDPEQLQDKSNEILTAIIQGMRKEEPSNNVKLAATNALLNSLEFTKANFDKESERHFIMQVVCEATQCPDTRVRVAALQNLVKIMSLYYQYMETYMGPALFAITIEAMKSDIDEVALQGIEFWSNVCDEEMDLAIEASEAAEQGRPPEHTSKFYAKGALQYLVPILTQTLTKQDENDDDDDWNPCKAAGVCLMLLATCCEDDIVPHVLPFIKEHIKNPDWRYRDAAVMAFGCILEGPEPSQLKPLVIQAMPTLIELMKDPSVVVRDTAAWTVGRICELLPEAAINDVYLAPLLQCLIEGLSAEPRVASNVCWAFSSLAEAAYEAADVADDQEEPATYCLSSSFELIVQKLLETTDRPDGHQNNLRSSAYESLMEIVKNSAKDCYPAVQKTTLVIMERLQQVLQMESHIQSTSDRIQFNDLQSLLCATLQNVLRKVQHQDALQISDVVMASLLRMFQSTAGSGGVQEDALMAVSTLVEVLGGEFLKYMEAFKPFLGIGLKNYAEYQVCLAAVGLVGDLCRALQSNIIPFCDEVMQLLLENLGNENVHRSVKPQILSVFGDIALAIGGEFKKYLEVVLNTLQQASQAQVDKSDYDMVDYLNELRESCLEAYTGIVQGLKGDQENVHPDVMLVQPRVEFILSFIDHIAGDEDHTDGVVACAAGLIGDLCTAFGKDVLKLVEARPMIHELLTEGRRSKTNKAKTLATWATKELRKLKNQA
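FRET biosensor (snurportin 1 IBB flanked by EYFP and cerulean), 50 nM, with compound 5 min, then 0.125 microM importin beta in PBS, 1 mM DTT, 0.02% Tween-20, 0.1% BSA. CFP/YFP ratio read after 45 min at room temperature; pre-read flags interference.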
miR-21 reporter: raises the signal of a miR-21 reporter; HeLa miR-21 FLuc reporter, luciferase, 48 h; Potency, µM (titrated, usually from 38.3 µM), inactives show top-dose reporter change, positive = more light; 340,000 tested, under 10 active; AID 2288; active = well fitted rising curve with a large enough effect; inconclusive = small, poorly fitted or top-dose-only effect; inactive = no such curve, though single readings can be large or run the other way;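 further: % of control where 0% means no effect; miR-21 action dims this reporter so a rising signal means less miR-21 action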
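HeLa cells endogenously expressing miR-21, stably carrying CMV-driven firefly luciferase with a downstream miR-21 binding site, 2000 cells/well. Titrations up to approximately 40 uM, 48 hours; luciferase luminescence read.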
GLA inh pH 4.5: alpha-galactosidase A (human) inhibition, pH 4.5; AID 1467; purified enzyme, 4-MU-alpha-Gal fluorescence, pH 4.5; 230,000 tested, under 10 active; P06280; activity change, negative = inhibition, % at 105 µM; inconclusive = small, poorly fitted or top-dose-only inhibition, or a rising curve; inactive = flat fitted curve, though single readings scatter; no compound was filed as active;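 further: 0% = full activity with enzyme and -100% = basal without enzyme; dose as in the result columns while the protocol names 77 µM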
Rango release inh: inhibitors of RanGTP-induced Rango-importin beta complex dissociation; Potency, µM (titrated, usually from 46.1 µM), without a hit: at the top dose activity change, negative = inhibition; hit rate 0.071% among 340,000; Biochemical FRET Rango-importin beta, RanGTP-induced dissociation; active means falling FRET ratio curve, often poorly fitted, with flat reads before Ran was added; inconclusive means other falling curves, or compound fluorescence or quenching; inactive means flat or rising ratio curve;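 further: potency means the concentration at half of the fitted maximal effect; % of control where 0% means no effect; nearly all actives have a fitted effect of over 45% in size; -100% = wells without RanGTP and RCC1; the record marks most hits as doubtful in a second field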
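Two FRET readings bracket the reaction: one 5 min after compound meets Rango–importin beta, another 45 min after RanGTP-RCC1 (0.6 uM Ran, 0.2 uM RCC1, 2 mM GTP) is added. Only the second defines inhibition.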
An asterisk follows results filed as active; ? = inconclusive; / = no result given; & = joins results of further samples. This is a subset; count on the stated rates, not on these rows.

Rango release inh	GLA inh pH 4.5	miR-21 reporter	Rango-impB inh	Structure
9%	3	-5%	-0.6%	CCn1c(SCC(=O)Nc2nonc2C)nnc1-c1ccoc1C
-3%	/	2%	-1.3%	COc1ccccc1CCC(=O)N(Cc1ccccc1)c1c(N)n(Cc2ccccc2)c(=O)[nH]c1=O
20%	-2	-3%	-0.5%	CCS(=O)(=O)Nc1cccc(C2=NN(S(=O)(=O)CC)C(c3ccccc3)C2)c1 (centres undefined)
?	-3	-42%	?	CC(=Nc1ccccc1)c1sc2ccccc2c1O
11%	-1	0%	?	CCOc1ccc(OCCCCn2cnc3ccccc3c2=O)cc1
16%	/	/	1.6%	CC1CN(C(=O)c2ccc(S(=O)(=O)Nc3cccc(C(F)(F)F)c3)cc2)CC(C)O1 (centres undefined)
9%	6	0%	0.6%	O=CN1CCc2scc[n+]2-c2ccccc21
5%	/	-2%	0.0%	CCn1c(=O)n(CC)c2cc(N3CCCC3)c(NC(=O)c3ccc(C)cc3)cc21
1%	-4	2%	-3.5%	Cc1ccc(NC(=O)CS(=O)CC(=O)NC(C)CCc2ccco2)cc1Cl (centres undefined)
-10%	/	-35%	1.4%	CCOc1ncccc1-c1nc(-c2cccs2)no1
-14%	?	-17%	?	CCOC(=O)C1=C(O)/C(=C/c2ccc(OCC(=O)O)c(OCC)c2)SC1=Nc1ccc(OC)cc1
?	-6	-2%	0.1%	CCN(CC)c1ccc(C2C3CCCCC3(O)CCN2CC(=O)N2CCCCC2)cc1 (centres undefined)
7%	1	-1%	3.1%	CCc1nnc(NC(=O)CSc2nnc(-c3cccnc3)n2C)s1
0%	/	-3%	2.6%	CC(=O)Nc1ccc(NC(=O)CN(C)S(=O)(=O)c2ccc3c(c2)CCC(=O)N3)cc1
4%	-2	-10%	1.4%	CCOc1ccccc1OCCCC(=O)N1CCN(S(=O)(=O)c2ccc(C)cc2)CC1

Reprinted from the part before: three entries; new compounds follow.
Rango release inh	GLA inh pH 4.5	miR-21 reporter	Rango-impB inh	Structure
7%	1	-1%	3.1%	CCc1nnc(NC(=O)CSc2nnc(-c3cccnc3)n2C)s1
0%	/	-3%	2.6%	CC(=O)Nc1ccc(NC(=O)CN(C)S(=O)(=O)c2ccc3c(c2)CCC(=O)N3)cc1
4%	-2	-10%	1.4%	CCOc1ccccc1OCCCC(=O)N1CCN(S(=O)(=O)c2ccc(C)cc2)CC1
1%	-6	-2%	0.6%	CC(C)C(=O)c1cn(CC(=O)N2CCCc3ccccc32)c2ccccc12
-8%	-19	1%	-0.5%	NC(=O)c1ccsc1NC(=O)COC(=O)COc1ccccc1F
2%	/	13%	1.5%	Cc1ccc(P(=O)(CSC(=N)N)c2ccc(C)cc2)cc1
-10%	-1	5%	0.5%	Cc1cc(Nc2nc3ccccc3[nH]c2=O)n(-c2ccccc2)n1
1%	0	-2%	-5.8%	O=C(Nc1ccccc1)C12CC3CC(C1)CC(n1cnc([N+](=O)[O-])n1)(C3)C2
0%	-1	-32%	-5.3%	O=C(NC(Nc1nc2ccccc2s1)(C(F)(F)F)C(F)(F)F)c1ccccc1
-11%	-18	6%	-2.4%	COc1ccccc1NS(=O)(=O)c1cc(NC(=O)CCNC(C)=O)ccc1C
23%	-3	1%	-1.6%	Cc1onc(-c2ccccc2)c1CNS(=O)(=O)c1cccc(Br)c1
9%	/	/	4.2%	COc1ccc(CN(C)C(=O)c2cccc(NC(=O)CC3SC(N4CCCCC4)=NC3=O)c2)c(OC)c1 (centres undefined)
-17%	-7	18%	-3.5%	COC(=O)c1[nH]c2cc(C)ccc2c1NC(=O)CN1CCN(c2ccccc2OC)CC1
1%	/	-6%	4.7%	CC(C)c1ccc(NC2CCCN(C(=O)c3ccoc3)C2)cc1 (centres undefined)
11%	/	/	2.9%	CCN(CC(=O)NCc1ccc(F)cc1)C(=O)C1CCN(S(=O)(=O)c2ccc(C(C)C)cc2)CC1
5%	/	?	-2.5%	COc1ccc(CN2CCN(Cc3cc(=O)oc4cc(C)ccc34)CC2)c(OC)c1OC
-14%	1	-4%	-2.8%	COC(=O)Cc1cc(=O)[nH]c(/N=C(\N)Nc2cccc(C)c2)n1
0%	/	0%	11%	COc1cc(C#N)c(NS(=O)(=O)c2ccc3[nH]c(=O)sc3c2)cc1OC
5%	-3	-5%	-3.1%	CCc1cc(C)c(O)c(CC)n1
16%	-10	3%	3.8%	Cc1ccc(CNC(=S)NCc2ccncc2)cc1
-4%	-5	-17%	-0.5%	COc1ccc(OC)c(-c2cc(C(=O)N3CCCc4ccccc43)no2)c1
1%	/	-6%	0.3%	O=C(O)CCN1CCc2ccccc2C1c1ccncc1 (centres undefined)
11%	/	-4%	-4.1%	COc1ccc(C(=O)Nc2nnc(SCC(=O)NCC3CCCO3)s2)cc1OC (centres undefined)
59%	/	-14%	-0.3%	CC(C)c1ccc(NC(=O)C2CCN(C(=O)[C@@H]3Cc4ccccc4CN3)CC2)cc1
3%	/	-3%	-4.4%	C=CCc1ccccc1Oc1cc(F)nc(N)n1
2%	1	-15%	3.7%	Cc1cc(Br)ccc1OCC(=O)N1CCCCCC1
-18%	-1	-18%	3.3%	O=C(CN1CCCCC1)N/N=C/c1ccccc1OCc1ccccc1
0%	-5	-11%	-4.2%	CC1CN(C)C(C)C/C1=N\Oc1ccc([N+](=O)[O-])cc1 (centres undefined)
17%	/	/	-1.7%	Cc1nn(CC(=O)NC2CCCC2)c(C)c1[N+](=O)[O-]
-5%	-1	20%	-2.0%	O=C(COc1cccc(Oc2ccccc2)c1)Nc1ccc(SC(F)F)cc1
-8%	-3	-3%	-0.4%	CC(C)N1CC(C(=O)Nc2ccccc2)CC1=O (centres undefined)
-6%	/	9%	-0.5%	Cc1noc(C)c1CSc1ccccc1C(=O)OC(C)C(N)=O (centres undefined)
-10%	3	-1%	0.5%	N#C/C(=C\c1cc(Cl)ccc1O)C(=O)NC1CCCCC1
21%	/	/	1.2%	CNCC(O)c1ccc(OC(=O)C(C)(C)C)c(OC(=O)C(C)(C)C)c1 (centres undefined)
7%	-2	-5%	1.4%	Cc1ccc(Cl)cc1N(CC(=O)NC1CCCCC1)S(C)(=O)=O
-18%	-16	-7%	3.6%	CN1CCN(c2ccccc2NC(=O)c2ccc(N3CCCCC3)c([N+](=O)[O-])c2)CC1
-18%	0	-4%	-1.7%	Cc1c(C(=O)NCc2cccnc2)oc2c1C(=O)CC(C)(C)C2
-2%	3	0%	-2.7%	O=C(Nc1ccccc1)N1CCN(c2nc3ccccc3s2)CC1
-6%	/	0%	-0.3%	COc1cc(OC)cc(C(=O)NC(C(=O)N2CCc3ccccc3C2)C(C)C)c1 (centres undefined)
-9%	9	-38%	1.5%	COc1ccc(OC)c(Cc2nnc(CCC(=O)NC3CCCCCCC3)o2)c1
15%	-7	1%	-1.2%	Cc1nc(N(C)C)c2sc(=S)n(Cc3ccccc3)c2n1
-3%	-1	3%	-3.9%	O=C(O)Cc1nn(Cc2ccc(Cl)cc2)c(=O)c2ccccc12
0%	/	7%	-1.3%	Cc1cc(C(=O)N2CCN(c3ccc([N+](=O)[O-])cc3)CC2)n[nH]1
-3%	/	-21%	?	COc1ccc(OCC2CCNCC2)cc1
0%	/	/	0.6%	c1nc(C2CCCCC2)cc2cc3c(cc12)OCO3
-11%	-3	-15%	-2.5%	Cc1nnc(SCC(=O)c2ccccc2F)n1Cc1ccccc1
-3%&-12%	12	-8%	3.2%&-0.4%	Cc1cc(C)c(NC(=O)CN2CCN3CCCC3C2)c(C)c1 (centres undefined)
0%	9	0%	-2.0%	COc1ccc(-c2onc(C)c2-c2cscn2)c(O)c1
-4%	/	/	2.2%	Fc1ccc2cnc(-c3ccccc3)c(-c3cc(C(F)(F)F)cc(C(F)(F)F)c3)c2c1
-5%	-4	-5%	-0.2%	CNC(=S)Nc1ccc(Cc2ccncc2)cc1
-1%	4	0%	0.4%	COC(=O)c1cc(Br)ccc1NC(=O)Nc1ccccc1
-19%	-8	-33%	-1.7%	C[C@H](NC(N)=O)C(=O)Nc1ccc(OCc2ccccc2)cc1
-6%	1	1%	-0.3%	CCC(=O)N1CCc2cc(S(=O)(=O)CCC(=O)NCc3ccc4c(c3)OCO4)ccc21
-10%	-1	-10%	-2.6%	Cc1ccc(C2=N/C(=C\c3cccs3)C(=O)N2Nc2ccccc2)cc1
1%	2	-40%	0.6%	CC(C)NC(=O)CCCOc1ccc(Cl)cc1Cl
3%	-7	-6%	2.0%	Cc1ccc2sc(NC(=O)CN3C(=O)c4ccccc4C3=O)nc2c1C
12%	-6	-7%	-2.0%	CCCCn1c(SCc2nc(N)nc(Nc3ccccc3C)n2)nc2ccccc2c1=O
5%	-4	-4%	0.1%	c1ccc(C2(c3ccccc3)OCC(Cn3cncn3)O2)cc1 (centres undefined)
?	1	-7%	-7.0%	O=C(c1ccccc1)c1cnc(Nc2ccc(Cl)c(Cl)c2)s1
0%	-6	-69%	-0.1%	O=C(COc1ccc(Cl)cc1Cl)NCc1ccco1
10%	/	-4%	-1.0%	O=C1NCCN1CCNS(=O)(=O)c1cc(C(F)(F)F)cc(C(F)(F)F)c1
-19%	-4	-31%	-1.2%	O=C(c1cnn2c(C(F)F)cc(C3CC3)nc12)N1CCc2ccccc2C1
0%	/	/	?	O=C(Nc1ccccc1)OCCCCOC(=O)Nc1ccccc1

Part of the list above, reduced to Rango release inh:
mol | Rango release inh
O=C(COc1ccc(Cl)cc1Cl)NCc1ccco1 | 0%
Cc1ccc(C2=N/C(=C\c3cccs3)C(=O)N2Nc2ccccc2)cc1 | -10%

Other structures:
Rango release inh	GLA inh pH 4.5	miR-21 reporter	Rango-impB inh	Structure
27%	1	0%	-0.9%	Cc1cccc2[nH]c(SCC(=O)O)nc12
-6%	-1	-6%	2.8%	CC(=O)c1cccc(NC(=O)c2cc(C)no2)c1
?	/	26%	?	COc1cc(/C=C/c2cc[n+](C)cc2)ccc1OCC(=O)Nc1ccc(Cl)c(Cl)c1
-11%	/	19%	-2.5%	Cc1cc(C)cc(OCC(=O)NNC(=S)NC(=O)C2CC2)c1
1%	/	-3%	0.4%	O=[N+]([O-])c1ccc(S(=O)(=O)Nc2ccc3c(c2)OCCO3)cc1
-19%	/	2%	0.2%	O=C(O)c1cccnc1Sc1ccc(Br)cc1
-20%	-10	0%	?	O=[N+]([O-])c1ccc(O)c(/C=N/NC(=S)Nc2ccc(Cl)cc2Cl)c1
-4%	/	/	-2.4%	Cc1c(C(=O)OCC(=O)NC2CC2)oc2ccc(Br)cc12
13%	2	-33%	4.3%	O=C(Nc1ccc([N+](=O)[O-])cn1)c1ccc(Br)o1
-4%	12	-3%	3.7%	Cc1cc(OCC(=O)NCCCN(C)C)cc(C)c1Br
0%	-1	-6%	-0.7%	S=c1[nH]nc(Cc2ccc(Cl)cc2)n1-c1ccc2c(c1)OCCO2
5%	-1	-41%	0.4%	Cc1ccc(OCC(=O)Nc2cccc(C)n2)c(C)c1
-1%	-1	-56%	-0.3%	Cc1ccc(NC(=O)c2sc3nc(CCl)[nH]c(=O)c3c2C)c(C)c1
?	3	-10%	?	C=CCn1c(N)c(-c2nc3ccccc3n2C)sc1=S
-1%	/	9%	-0.3%	CC(=O)c1sc(NC(=O)CCNC(=O)c2ccco2)nc1-c1ccccc1
3%	0	13%	-0.4%	Nc1c(N2CCN(c3ccccc3)CC2)c2ccccc2oc1=O
0%	-6	0%	3.0%	COc1ccc(C(CNC(=O)c2cc(F)c(F)c(F)c2F)N2CCOCC2)cc1 (centres undefined)
-13%	/	/	2.7%	C[C@H](CO)N1C[C@H](C)[C@@H](CN(C)C)Oc2c(NS(=O)(=O)c3cccs3)cccc2C1=O
1%	/	-5%	0.2%	Cc1ccc(S(=O)(=O)Nc2ccc(C(=O)NCc3cccnc3)cc2)cc1
9%	/	-6%	-1.0%	CC(=O)Nc1ccc(NC(=O)c2ccccc2N(C)S(=O)(=O)c2ccc(C)cc2)cc1

Source: PubChem (National Center for Advancing Translational Sciences (NCATS))
